Screens: PubChem, several laboratories
CSC inhib: cancer stem cell viability inhibitors, primary screen, luminescence | cancer stem cell-like cells viability | inhibition, % at 7.5 µM | 300,000 compounds, 1.1% hits;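 active means mean at 75% or more and at least half the replicates too; tested in HMLE shEcad cells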;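 further: 0% = median of negative and 100% = median of positive control wells; the first replicate is given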
eIF4H inh: human eIF4H binding inhibitors, primary screen, translation initiation inhibitor project, biochemical, uHTS, fluorescence polarization. Eukaryotic translation initiation factor 4H (Homo sapiens), Q15056. eIF4H fluorescence polarization binding assay. inhibition, % at 35 µM. 290,000 compounds, 0.94% hits. AID 2012, 2009;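 active means 50% or more with normal probe brightness, or confirmed in later tests; about a fifth of its hits are not listed in these tables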;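 further: calls also rest on retests at 20 µM and on dose response follow-up; 0% = protein and probe with vehicle and 100% = probe without protein; strong numbers were not always called active; many hits fall short of the cut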
MT1-MMP act inh: blockers of MT1-MMP proenzyme processing, primary screen, HT1080 RFP-PRO-GFP cells, GFP/RFP fluorescence; Matrix metalloproteinase-14 (Homo sapiens), P50281; GFP/RFP ratio fluorescence, overnight; percent of plate control window, DMSO zero; GFP/RFP ratio change, % at 20 µM; 360,000 compounds, 0.061% hits; AID 651647, 2012;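 active means GFP/RFP ratio change of at least 30% with cell ATP level not reduced by more than half and red fluorescence within 50% of control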; further: strong numbers were not always called active
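Test system: HT1080 cells expressing an RFP-PRO-GFP fluorescent reporter construct / Compound dosing: single-point 20 µM compound, 1% DMSO / Schedule: cells overnight before dosing, compound overnight, 37 °C, 5% CO2 / Evaluation: GFP/RFP fluorescence ratio / Control set: DMSO and RFP-L50D-GFP cell wells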
PABP polyA inh: PABP poly(A) RNA binding inhibitors, primary screen, biochemical, fluorescence polarization, uHTS. Polyadenylate-binding protein 1 (Homo sapiens), P11940. 290,000 compounds, 1% hits. AID 2014, 2009. inhibition, % at 35 µM;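 active means 50% or more with normal probe brightness, or confirmed in later tests; about a fifth of its hits are not listed in these tables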;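 further: calls also rest on retests at 20 µM and on dose response follow-up; controls were probe without protein and protein plus probe with vehicle; some compounds called inactive have numbers as strong as hits; many hits fall short of the cut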
Target sequence (P11940 whole entry, looked up): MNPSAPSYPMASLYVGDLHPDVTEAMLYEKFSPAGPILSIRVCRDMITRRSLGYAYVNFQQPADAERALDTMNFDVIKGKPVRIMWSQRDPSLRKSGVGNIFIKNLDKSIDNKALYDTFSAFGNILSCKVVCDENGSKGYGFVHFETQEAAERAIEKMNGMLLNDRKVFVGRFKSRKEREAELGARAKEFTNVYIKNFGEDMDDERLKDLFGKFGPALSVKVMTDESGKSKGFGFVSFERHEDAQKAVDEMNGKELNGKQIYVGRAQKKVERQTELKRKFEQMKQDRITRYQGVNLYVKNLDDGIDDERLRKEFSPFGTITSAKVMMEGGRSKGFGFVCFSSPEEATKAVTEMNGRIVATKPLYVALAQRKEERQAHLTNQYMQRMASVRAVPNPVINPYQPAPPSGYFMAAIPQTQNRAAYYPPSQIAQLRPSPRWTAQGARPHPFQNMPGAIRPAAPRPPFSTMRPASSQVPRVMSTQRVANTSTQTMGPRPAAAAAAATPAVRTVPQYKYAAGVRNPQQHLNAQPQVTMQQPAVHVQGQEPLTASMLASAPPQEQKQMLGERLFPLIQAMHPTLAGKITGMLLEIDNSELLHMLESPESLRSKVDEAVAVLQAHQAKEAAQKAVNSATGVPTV
Env fusion inh: inhibitors of HIV-1 Env-driven cell-cell fusion, primary screen, HeLa-JRFL effector, CEM21 target cells, luciferase | AID 651610, 2012 | 360,000 compounds, 1.1% hits | inhibition, % at 12.3 µM;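 active means mean replicate inhibition score of at least 50 and every replicate individually at or above 50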;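 further: 0% = plate neutral controls and 100% = maraviroc near 300 nM; one replicate is shown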
UUG fidelity: modulators of yeast start codon fidelity, primary screen, whole organism, S. cerevisiae, single point, plate reader | S. cerevisiae UUG-firefly luciferase reporter, luminescence/redox ratio | AID 602363, 2012 | activity score, % at 18.7 µM | 350,000 compounds, 0.13% hits;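 active means replicate mean at a twofold rise or more, about +100% in these data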;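 further: firefly luciferase made from a UUG start codon reports start codon fidelity; reporter light over untreated wells divided by growth signal over untreated wells; some hits fall short of that in this replicate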
Rce1 inhib: yeast Rce1p protease inhibitors, primary screen, biochemical, fluorescence, cell-free homogeneous; yeast membranes, quenched prenylated peptide cleavage fluorescence; calls only; 290,000 compounds, 0.27% hits; AID 2563, 2010;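 active means fall in fluorescence gain of 50% or more versus controls, with final raw signal at or below 3038400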;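 further: plate controls were neutral control wells for no effect and wells lacking membranes for full effect; tested at 10 µM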
Target sequence (Q03530 whole entry, looked up): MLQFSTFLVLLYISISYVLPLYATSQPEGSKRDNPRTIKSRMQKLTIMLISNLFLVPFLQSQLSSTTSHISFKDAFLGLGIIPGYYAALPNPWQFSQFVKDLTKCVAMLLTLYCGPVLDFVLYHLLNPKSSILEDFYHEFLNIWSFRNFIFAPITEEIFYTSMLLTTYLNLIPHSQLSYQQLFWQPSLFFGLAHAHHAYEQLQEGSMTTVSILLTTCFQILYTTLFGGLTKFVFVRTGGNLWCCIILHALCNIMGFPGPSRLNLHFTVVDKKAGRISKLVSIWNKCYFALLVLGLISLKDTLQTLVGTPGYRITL
MT1-MMP act inh RFP: also measured in MT1-MMP act inh; calls as there; RFP signal change, %; measured here: RFP expression control read;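 0 = vehicle wells; hits needed this value within 50% of zero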
Starred values were filed as active, the others as inactive.

`O=C1[C@@H]2C(Cc3ccc(O)cc3)NC3(C(=O)Nc4ccc(F)cc43)[C@@H]2C(=O)N1c1ccccc1` (stereo partly drawn) gave CSC inhib 2, eIF4H inh -7, MT1-MMP act inh -11, PABP polyA inh 6, Env fusion inh -65, UUG fidelity 14, Rce1 inhib inactive and MT1-MMP act inh RFP -1.
CCOCCCn1c(=S)[nH]c2cc(C(=O)NCc3ccc(F)cc3)ccc2c1=O was read as CSC inhib -2, eIF4H inh -9, MT1-MMP act inh 4, PABP polyA inh 6, Env fusion inh -3, UUG fidelity -11, Rce1 inhib inactive and MT1-MMP act inh RFP 1.
For COc1ccc(N2CCN(C3CCCCC3NS(=O)(=O)c3ccccc3)CC2)cc1 (stereo not drawn) the results were CSC inhib -3, eIF4H inh 8, MT1-MMP act inh -6, PABP polyA inh 7, Env fusion inh 4, UUG fidelity 1, Rce1 inhib inactive and MT1-MMP act inh RFP -11.
`CCCCN(CC)C(=O)C1CCCN(S(=O)(=O)c2cccc3nsnc23)C1` (stereo not drawn) gave CSC inhib 6, eIF4H inh -4, MT1-MMP act inh -2, PABP polyA inh 13, Env fusion inh 10, UUG fidelity -16, Rce1 inhib inactive and MT1-MMP act inh RFP -6.
For O=C(Cc1ccccc1[N+](=O)[O-])NCc1ccccc1Cl the results were CSC inhib 0, eIF4H inh -1, MT1-MMP act inh 0, PABP polyA inh -7, Env fusion inh -198, UUG fidelity -10, Rce1 inhib inactive and MT1-MMP act inh RFP 0.
`Cc1cccnc1NC(=O)c1cc2c(=O)oc3ccccc3c2s1` gave CSC inhib 2, eIF4H inh -6, MT1-MMP act inh -2, PABP polyA inh 13, Env fusion inh 8, Rce1 inhib inactive and MT1-MMP act inh RFP -2.
Screening Cc1nn(C(=O)c2ccco2)c(C)c1Sc1ccc(Br)cc1 returned CSC inhib -3, eIF4H inh 3, MT1-MMP act inh 1, PABP polyA inh 3, Rce1 inhib inactive and MT1-MMP act inh RFP 0.
`O=C1CSCC(=O)N1c1ccccc1` gave CSC inhib -9, eIF4H inh -6, MT1-MMP act inh 0, PABP polyA inh 33, Rce1 inhib inactive and MT1-MMP act inh RFP 2.
For CCCC(=O)Nc1ccc(N2CCN(C(=O)c3ccccc3C)CC2)cc1 the results were CSC inhib -4, eIF4H inh -2, MT1-MMP act inh -4, PABP polyA inh -6, UUG fidelity 0, Rce1 inhib inactive and MT1-MMP act inh RFP -3.
`CSCC(=O)N1CCC(n2nccc2NC(=O)CCCc2ccccc2)CC1` gave CSC inhib -2, eIF4H inh -13, MT1-MMP act inh -2, PABP polyA inh -7, Env fusion inh -6, UUG fidelity 12, Rce1 inhib inactive and MT1-MMP act inh RFP 1.
`O=C(CN1C(=O)COc2ccccc21)Nc1ccc2c(c1)OCCO2` gave CSC inhib -3, eIF4H inh -1, MT1-MMP act inh -5, PABP polyA inh 6, Env fusion inh -13, UUG fidelity 5 and MT1-MMP act inh RFP -3.
`C=CCN(c1ccccc1)S(=O)(=O)c1ccc2c(c1)NC(=O)C(C)C(=O)N2` (stereo not drawn) gave CSC inhib -8, eIF4H inh 2, MT1-MMP act inh 0, PABP polyA inh 5, Env fusion inh -65, UUG fidelity 3, Rce1 inhib inactive and MT1-MMP act inh RFP 3.
Screening COc1ccc(S(=O)(=O)N2CCC(C(=O)Nc3ccc(OC)c(OC)c3)CC2)cc1C returned CSC inhib -5, MT1-MMP act inh 7, Rce1 inhib inactive and MT1-MMP act inh RFP 3.
For O=C(Nc1ccc(Cc2ccncc2)cc1)c1cccs1 the results were CSC inhib 2, eIF4H inh -6, MT1-MMP act inh 3, PABP polyA inh 1, Env fusion inh 14, UUG fidelity 4, Rce1 inhib inactive and MT1-MMP act inh RFP 0.
`Cc1nnc(SCc2ccccc2)n1N` gave CSC inhib 1, eIF4H inh 6, MT1-MMP act inh 5, PABP polyA inh 6, UUG fidelity -15, Rce1 inhib inactive and MT1-MMP act inh RFP 12.
C/C(=N\NC(=O)C(c1ccccc1)c1ccccc1)c1ccc(O)cc1 was read as CSC inhib -11, eIF4H inh -8, MT1-MMP act inh 7, PABP polyA inh 0, Env fusion inh -57, UUG fidelity -4, Rce1 inhib inactive and MT1-MMP act inh RFP 4.
For CCOC(=O)c1[nH]c2ccc(OC)cc2c1NC(=O)NC(C)C the results were CSC inhib -5, eIF4H inh -16, MT1-MMP act inh 2, PABP polyA inh -1, UUG fidelity -2, Rce1 inhib inactive and MT1-MMP act inh RFP -1.
`Nc1nnc(SCC(=O)OCc2ccc(F)cc2)s1` gave CSC inhib 11, eIF4H inh -9, MT1-MMP act inh 4, PABP polyA inh -2, Env fusion inh 8, Rce1 inhib inactive and MT1-MMP act inh RFP 9.
For COc1ccc(CN(C)S(=O)(=O)c2nnc(NC(=O)c3ccc(C)cc3)s2)cc1OC the results were CSC inhib -1, eIF4H inh -9, MT1-MMP act inh 3, PABP polyA inh -1, Env fusion inh -12, UUG fidelity -24, Rce1 inhib inactive and MT1-MMP act inh RFP 1.
For N#CC1=C2SCC(O)(c3ccccc3)N2C(=O)CC1c1ccccc1 (stereo not drawn) the results were CSC inhib 54, eIF4H inh 4, MT1-MMP act inh 5, PABP polyA inh 14, UUG fidelity 6, Rce1 inhib inactive and MT1-MMP act inh RFP -6.
For CCOc1cc(/C=N/NC(=O)c2cccnc2)ccc1OCc1ccc(C(=O)OC)o1 the results were CSC inhib -2, eIF4H inh 3, MT1-MMP act inh -2, PABP polyA inh -8, Env fusion inh 4, Rce1 inhib inactive and MT1-MMP act inh RFP -1.
For CC(NC(=O)C(=O)NCCCn1ccnc1)c1ccccc1 (stereo not drawn) the results were CSC inhib 14, eIF4H inh -3, MT1-MMP act inh 2, PABP polyA inh -8, Env fusion inh -4, Rce1 inhib inactive and MT1-MMP act inh RFP 4.
Screening O=C(CSc1nn(-c2ccccc2)c(=S)s1)Nn1cnnc1 returned CSC inhib 18, eIF4H inh 4, MT1-MMP act inh 3, PABP polyA inh -4, Env fusion inh -7, UUG fidelity -21 and MT1-MMP act inh RFP 12.
For NC(=O)C[C@@H]1N[C@]2(C(=O)Nc3ccccc32)[C@@H]2C(=O)N(C3CCCCC3)C(=O)[C@H]12 the results were CSC inhib -20, eIF4H inh 0, MT1-MMP act inh 6, PABP polyA inh 8, Env fusion inh 10, UUG fidelity -9 and MT1-MMP act inh RFP 1.
Screening O=C(O)C1CCN(S(=O)(=O)c2ccc(N3CCCC3C(=O)O)c([N+](=O)[O-])c2)CC1 (stereo not drawn) returned CSC inhib 0, eIF4H inh 3, MT1-MMP act inh 2, PABP polyA inh 9, UUG fidelity -14, Rce1 inhib inactive and MT1-MMP act inh RFP 5.
`CC(C)[C@H](CO)NC(=O)[C@H]1O[C@@H](n2ccc(N)nc2=O)[C@H](O)[C@@H]1O` gave MT1-MMP act inh 3, Env fusion inh 16, UUG fidelity -16 and MT1-MMP act inh RFP 4.
CN(Cc1ccccc1)C(=O)c1cccc(N2C(=O)C3CC=CCC3C2=O)c1 (stereo not drawn) was read as CSC inhib 0, eIF4H inh 5, MT1-MMP act inh 1, PABP polyA inh -2, Env fusion inh -2, UUG fidelity -6, Rce1 inhib inactive and MT1-MMP act inh RFP 4.
CC(c1nc2ccccc2c(=O)[nH]1)N(C)c1ccc2ccccc2c1 (stereo not drawn) was read as eIF4H inh 17, MT1-MMP act inh -24, PABP polyA inh 35, Env fusion inh -4, UUG fidelity 16, Rce1 inhib inactive and MT1-MMP act inh RFP 1.
CCNCCC(=O)N1c2ccccc2Sc2ccc(C(F)(F)F)cc21 was read as CSC inhib -11, eIF4H inh -2, MT1-MMP act inh 3, PABP polyA inh 8, Env fusion inh -19, UUG fidelity -3, Rce1 inhib inactive and MT1-MMP act inh RFP -2.
Screening COc1ccc2oc(=Nc3cccc(F)c3)c(C(N)=O)cc2c1 returned CSC inhib 21, eIF4H inh 1, MT1-MMP act inh -4, PABP polyA inh -6, Env fusion inh 13, Rce1 inhib inactive and MT1-MMP act inh RFP 3.
For NC(=O)COC(=O)[C@H](Cc1c[nH]c2ccccc12)NC(=O)c1ccc(F)cc1 the results were CSC inhib -9, eIF4H inh -8, MT1-MMP act inh -2, PABP polyA inh 5, Env fusion inh -14, UUG fidelity -18 and MT1-MMP act inh RFP -1.
`COCCNC(=O)C1(C)CCCN(Cc2c(C)nn(-c3ccccc3)c2C)C1` (stereo not drawn) gave MT1-MMP act inh -1, Env fusion inh 20, UUG fidelity -7 and MT1-MMP act inh RFP -1.
For CC(C)(C)C(=O)NCc1ccc(C(=O)CN2C(=O)NC3(CCCC3)C2=O)s1 the results were MT1-MMP act inh 3, Env fusion inh 20, UUG fidelity 7 and MT1-MMP act inh RFP -3.
`O=C1Nc2cc(C(=O)N3CCN(Cc4ccccc4)CC3)ccc2SC1N1CCOCC1` (stereo not drawn) gave CSC inhib 4, eIF4H inh -6, MT1-MMP act inh 7, PABP polyA inh -13, UUG fidelity -7, Rce1 inhib inactive and MT1-MMP act inh RFP 4.
For CCc1cc(SC#N)ccc1N the results were CSC inhib -4, eIF4H inh 3, MT1-MMP act inh -1, PABP polyA inh -15, Env fusion inh -21, Rce1 inhib inactive and MT1-MMP act inh RFP -8.
`O=C(NCc1cccnc1)c1cc2nc(-c3cccs3)cc(C(F)(F)Cl)n2n1` gave CSC inhib -2, eIF4H inh 13, MT1-MMP act inh -3, PABP polyA inh -3, Env fusion inh 4, UUG fidelity -1, Rce1 inhib inactive and MT1-MMP act inh RFP -2.
COc1ccc(N2C(=O)CSC23CCC(C(C)(C)C)CC3)cc1 (stereo not drawn) was read as CSC inhib -10, eIF4H inh -8, MT1-MMP act inh -7, PABP polyA inh 2, Env fusion inh -54, Rce1 inhib inactive and MT1-MMP act inh RFP -14.
Screening CC1(C)CC(=O)C2=C(C1)Nc1ccccc1[S@]2=O returned CSC inhib -7, eIF4H inh -6, MT1-MMP act inh -1, PABP polyA inh 5, Env fusion inh -68, Rce1 inhib inactive and MT1-MMP act inh RFP 0.
For CCOC(=O)c1ccc(NC(=S)N(CCCN2CCCC2)Cc2ccco2)cc1 the results were CSC inhib -6, eIF4H inh 5, MT1-MMP act inh -3, PABP polyA inh 4, UUG fidelity -12, Rce1 inhib inactive and MT1-MMP act inh RFP 4.
O=C(COc1ccc([N+](=O)[O-])cc1)Nc1ccc(NC(=O)c2ccccc2)cc1 was read as CSC inhib -7, eIF4H inh -1, MT1-MMP act inh -2, PABP polyA inh 3, Env fusion inh 2, UUG fidelity -8, Rce1 inhib inactive and MT1-MMP act inh RFP 2.
CN(C)c1ncc(S(=O)(=O)c2ccccc2)c(N)n1 was read as eIF4H inh -12, MT1-MMP act inh 2, PABP polyA inh 4, Env fusion inh -12, UUG fidelity -18, Rce1 inhib inactive and MT1-MMP act inh RFP -2.
Screening CSCCC(NC(=O)c1ccccc1Br)C(=O)NC(C)CCc1ccccc1 (stereo not drawn) returned CSC inhib 5, eIF4H inh -4, MT1-MMP act inh -1, PABP polyA inh -3, Env fusion inh 64*, UUG fidelity -14, Rce1 inhib inactive and MT1-MMP act inh RFP -2.
For Cc1nc(C)c(C)nc1C the results were CSC inhib 5, eIF4H inh 9, PABP polyA inh 3, UUG fidelity 1 and Rce1 inhib inactive.

The list is partial, so the mix of outcomes need not match the whole.
